Rango release inh – inhibitors of RanGTP-induced Rango-importin beta complex dissociation. O95149+P62826. AID 540253. 0.071% of 340,000 active. Potency, µM (doses to about 46.1 µM), inactives show at the highest dose activity change, negative = inhibition. Biochemical FRET Rango-importin beta, RanGTP-induced dissociation; active means falling FRET ratio curve, often poorly fitted, with flat reads before Ran was added; inconclusive means other falling curves, or compound fluorescence or quenching; inactive means flat or rising ratio curve;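 also: potency is read from the fitted curve at half-maximal effect; % of control where 0% means no effect; nearly all actives have a fitted effect of over 45% in size; -100% = wells without RanGTP and RCC1; the record marks most hits as doubtful in a second field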
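Compounds preincubate 5 min with complex of recombinant Rango and importin beta in PBS with 1 mM DTT. Ran (0.6 uM) loaded with 2 mM GTP plus 0.2 uM RCC1 starts dissociation; FRET is recorded 45 min later.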
miR-21 FLuc – raises the signal of a miR-21 reporter; 340,000 tested, under 10 active; HeLa miR-21 FLuc reporter, luciferase, 48 h; Potency, µM (series often up to 38.3 µM), for the others: top-dose reporter change, positive = more light; active = well fitted rising curve with a large enough effect; inconclusive = small, poorly fitted or top-dose-only effect; inactive = no such curve, though single readings can be large or run the other way;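 also: % of control where 0% means no effect; miR-21 action dims this reporter so a rising signal means less miR-21 action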
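Luminescence from a firefly luciferase reporter carrying a miR-21 binding site downstream, stably expressed under a CMV promoter in HeLa cells that make miR-21 endogenously, reports miRNA modulation after 48 h compound exposure up to approximately 40uM final.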
Rango-impB inh – Rango-importin beta binding inhibition. 0.031% of 340,000 active. Q14974. Potency, µM (doses to about 92.2 µM), for the others: at the highest dose inhibition of complex formation. AID 540263. Rango CFP/YFP FRET sensor + importin beta, 45 min; active = rising FRET ratio curve, often small or poorly fitted; inconclusive = mostly compound fluorescence or quenching in the first reads; inactive = flat curves in all reads;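 also: potency is read from the fitted curve at half-maximal effect; 0% = DMSO wells and 100% = buffer wells lacking importin beta; nearly all actives have a fitted effect of over 15% in size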
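FRET biosensor (snurportin 1 IBB flanked by EYFP and cerulean), 50 nM, with compound 5 min, then 0.125 microM importin beta in PBS, 1 mM DTT, 0.02% Tween-20, 0.1% BSA. CFP/YFP ratio read after 45 min at room temperature; pre-read flags interference.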
GLA inh pH 4.5 – inhibitors of human alpha-galactosidase A at pH 4.5; activity change, negative = inhibition, % at 105 µM; 230,000 tested, under 10 active; purified enzyme, 4-MU-alpha-Gal fluorescence, pH 4.5; P06280; inconclusive = small, poorly fitted or top-dose-only inhibition, or a rising curve; inactive = flat fitted curve, though single readings scatter; no compound was filed as active;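 also: 0% = full activity with enzyme and -100% = basal without enzyme; dose as in the result columns while the protocol names 77 µM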
Target sequence (P06280 whole entry, looked up): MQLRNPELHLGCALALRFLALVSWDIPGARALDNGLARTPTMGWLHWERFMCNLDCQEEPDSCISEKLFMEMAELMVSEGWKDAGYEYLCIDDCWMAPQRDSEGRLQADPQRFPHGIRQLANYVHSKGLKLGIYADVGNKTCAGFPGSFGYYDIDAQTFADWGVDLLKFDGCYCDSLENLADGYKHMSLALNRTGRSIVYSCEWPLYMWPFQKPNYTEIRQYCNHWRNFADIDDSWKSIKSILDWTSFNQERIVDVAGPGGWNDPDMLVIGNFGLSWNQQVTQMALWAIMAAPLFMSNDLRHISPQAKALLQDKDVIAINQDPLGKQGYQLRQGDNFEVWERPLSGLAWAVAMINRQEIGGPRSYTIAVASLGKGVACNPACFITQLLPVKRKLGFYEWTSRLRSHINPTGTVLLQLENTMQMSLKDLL
The depositor's hits bear a star; ? = inconclusive; . = no result given; & = joins results of further samples. A portion of the library, so the mix of outcomes need not match the whole.

SMILES	Rango release inh	miR-21 FLuc	Rango-impB inh	GLA inh pH 4.5
Nn1c(SCC(=O)Nc2ccccc2C(F)(F)F)nncc1=O	1.6%	4.3%	3.3%	.
CCNc1nc(NC(C)C)nc(N(C#N)C(C)C(=O)N(CC)CC)n1 (centres undefined)	-0.3%	-10.8%	-4.4%	-1.9
O=C(c1cnccn1)N(Cc1cccs1)C1(C(=O)NC2CCCCC2)CCCCC1	-6.6%	-5.3%	-4.3%	6.6
Cc1cc(C)cc(OCC(=O)NNC(=O)c2cc3ccccc3oc2=O)c1	-4.4%	-18.7%	-1.4%	1.0
COc1ccc(NC(=O)c2ccc(NC(=O)C3COc4ccccc4O3)cc2)c(OC)c1 (centres undefined)	3.9%	.	5.0%	.
CC1(C)Cc2cccc(OCC(=O)Nc3ccc(S(N)(=O)=O)cc3)c2O1	-13.9%	.	-0.5%	.
O=C(NCc1ccccc1)C(c1cccs1)N(Cc1cccs1)C(=O)c1cnccn1 (centres undefined)	9.3%	9.8%	-0.2%	-6.6
CCOCCCN1CN(S(=O)(=O)c2ccc(Cl)cc2)c2nc3ccccc3nc21	-16.3%	-8.3%	0.5%	-4.0
Cc1c(C(=O)NC(=S)Nc2ccccc2N2CCCC2)cccc1[N+](=O)[O-]	33.9%	-11.9%	1.5%	-2.5
Cc1sc2nc(SCC(=O)N(CCO)CCO)n(C3CCCCC3)c(=O)c2c1C	4.6%	-1.3%	-0.1%	5.9
CCCN(Cc1cc2cc(C)ccc2[nH]c1=O)C(=O)c1cccc(OC)c1	-0.9%	1.0%	2.8%	2.7
CCSc1nc2c(c(=O)[nH]1)C(c1ccncc1)C(C(=O)OC)=C(C)N2 (centres undefined)	-11.8%	-7.2%	-1.4%	-0.7
COC(=O)Cn1c(SCc2ccccc2)nc2ccccc21	-13.4%	-55.9%	-1.6%	0.3
COc1ccc(OCC(=O)N(Cc2sccc2C)C2CCS(=O)(=O)C2)cc1 (centres undefined)	-6.3%	-5.2%&-1.7%	-2.0%	.
Cc1ccc(C(=O)NCC(=O)OC(C)C(=O)NC2CCCCC2C)cc1C (centres undefined)	11.3%	.	0.4%	.
Cc1cc2oc(C(=O)NCc3ccc(S(N)(=O)=O)cc3)c(C)c2cc1C	1.4%	-15.1%	-5.8%	2.9
NS(=O)(=O)c1cc2c(cc1C(F)(F)F)NCNS2(=O)=O	-4.5%	-7.3%	0.6%	-2.0&2.2&2.2
CCCN(CCC)C(=O)Cc1ccc(F)cc1	-22.5%	-4.7%	0.7%	6.4
COc1cnc(SC)nc1Nc1ccc(C#N)cc1	17.1%	-1.9%	6.3%	3.3
COc1ccccc1NC(=O)Cn1cnc2c(nnn2-c2ccc(C)cc2)c1=O	29.7%	-1.0%	0.3%	0.5
Cc1ccccc1OCC(O)Cn1c(Br)nc2c1c(=O)[nH]c(=O)n2C (centres undefined)	10.2%	3.6%	3.2%	5.8
COc1ccc2nc(C)cc(N/N=C/c3ccc(F)cc3)c2c1	-2.3%	?	5.6%	.
CCCC(=O)N(Cc1cc(=O)[nH]c2ccccc12)c1ccccc1	-8.9%	0.0%	-2.1%	.
Cc1c(CC=C(Cl)Cl)c(=O)[nH]c2c(C)cccc12	-6.7%	-6.6%	-0.1%	4.1
CCCCN(Cc1ccccc1)S(=O)(=O)c1cc(Br)cc2c1N(C(C)=O)C(C)C2 (centres undefined)	14.4%	21.6%	-1.1%	-16.5
CCC1(c2ccccc2)NC(=O)N(CC(=O)N(C)CC(=O)Nc2c(C)cccc2C)C1=O (centres undefined)	-1.8%	-3.1%	?	.
O=C(c1ccccc1)N1CCN(C(=O)c2ccc3c(c2)OCO3)CC1	-28.0%	2.9%	?	.
CC(CC(=O)NC1CCCCC1)S(=O)(=O)c1ccc2c(c1)CCN2C(=O)C1CC1 (centres undefined)	6.1%	-3.2%	4.5%	.
O=C(CCNS(=O)(=O)c1ccc(Br)cc1)NCc1ccc(F)cc1	5.8%	4.0%	-0.7%	.
CCC1(C)NC(=O)N(/N=C/c2ccc(C)s2)C1=O (centres undefined)	0.9%	-39.7%	-0.7%	.
COc1ccc2oc(C(=O)OCC(=O)Nc3cc(S(=O)(=O)N4CCOCC4)ccc3C)c(C)c2c1	-7.4%	.	-3.2%	.
COCCN(C(=O)C1=COCCO1)c1c(N)n(CC(C)C)c(=O)[nH]c1=O	0.4%	.	6.0%	.
COc1ccccc1C(=O)Nc1cccc(NC(C)=O)c1	-15.1%	-17.9%	-0.2%	1.4
COc1cccc(CN(C)C(=O)CSCC(=O)Nc2ccc(C)cc2)c1OC	-17.4%	.	3.5%	.
COCC(C)N=C1NN=C(c2cccs2)C(CC(=O)O)S1 (centres undefined)	-21.7%	-5.2%	-4.0%	-0.8
COc1ccc(NC(=O)c2cccnc2N2CCCCC2)cc1	-7.9%	-3.4%	-0.3%	-8.5
Cn1nnnc1SCC(=O)N1CCCCC1	-5.4%	-0.2%	-1.4%	.
CCc1ccc(N2C(=O)CC(N3CCN(c4ccccn4)CC3)C2=O)cc1 (centres undefined)	-8.5%	3.4%	0.7%	6.4
COc1ccc(-n2c(-c3cc(-c4ccccc4)sc3N)n[nH]c2=S)cc1	1.1%	-15.0%	0.5%	-4.4
Oc1c(C(Nc2ccccn2)c2cccnc2)cc(Cl)c2cccnc12 (centres undefined)	-9.1%	27.5%	3.0%	2.0
O=C(O)c1ccc(Cl)c(S(=O)(=O)N(Cc2ccccc2)c2ccc(F)cc2)c1	5.8%	11.1%	2.6%	.
CC(NC(=O)C(=O)N1CCCCC1)C(c1cccs1)N1CCN(c2ccccc2)CC1 (centres undefined)	-4.4%	0.2%	1.7%	.
CCCCCCC(C)OC(=O)c1ccccc1C(=O)O (centres undefined)	10.8%	-0.4%	4.9%	-24.1
COc1ccc(C(C(=O)NC2CCCC2)N(Cc2cccnc2)C(=O)c2snc(C(N)=O)c2N)cc1 (centres undefined)	-1.5%	10.9%	?	.
O=C(OCc1nc2ccccc2s1)c1cccs1	1.9%	-46.8%	-3.9%	2.8
COC(=O)c1cc(C(=O)OC)n(Cc2ccc(F)cc2)c1C	3.4%	-1.8%	-0.2%	-0.5
CC(=O)N1CCOc2ccc(S(=O)(=O)N3CCN(c4cccc(C(F)(F)F)c4)CC3)cc21	2.1%	25.4%	-1.2%	.
CCc1ccccc1NC(=O)C1CCCN1C(=O)NCc1ccccc1 (centres undefined)	6.3%	2.2%	-2.4%	.
CCNC(=S)N(CCCN(CC)CC)Cc1cc2cc3c(cc2[nH]c1=O)OCO3	-10.3%	-1.1%	-4.7%	.
O=C(/C=C/c1ccc2c(c1)OCO2)Nc1nncs1	3.1%	-29.6%	-0.1%	-8.1
Next section:
SMILES	Rango release inh	miR-21 FLuc	Rango-impB inh	GLA inh pH 4.5
CCc1nnc(NC(=O)c2ccc(N3C(=O)CCC3=O)cc2)s1	2.8%	-9.3%	?	2.1
Cc1cccc(C)c1-n1nnnc1-c1cnccc1C(F)(F)F	-14.9%	4.0%	4.1%	-3.4
CCCOc1ccc(C(=O)Nc2cc(-c3nn4c(C)nnc4s3)ccc2C)cc1	-15.4%	-6.6%	2.5%	-14.5
CCO[C@@H]1OC(C(N)=O)=C[C@H](c2ccc(C(F)(F)F)cc2)[C@H]1CCCO	3.9%	-2.5%	6.4%	-3.4
O=c1c2ccccc2c(=O)n(-c2ccccc2)n1CCCCBr	-9.1%	.	6.0%	.
COc1ccc(NC(=O)CNC(=O)c2nn(-c3ccc(OC)cc3OC)c(=O)c3ccccc23)c(OC)c1	-11.0%	0.2%	6.1%	.
COc1ccc(/C=N/NC2=NS(=O)(=O)c3ccccc32)cc1OC	27.9%	-1.7%	3.5%	.
COc1cc(/C=N/NC(=O)C(=O)NCc2cccnc2)ccc1O	0.0%	-3.3%	5.1%	-18.4
CC(C(=O)Nc1cccc(S(=O)(=O)N2CCOCC2)c1)N1CCN(C/C=C/c2ccccc2)CC1 (centres undefined)	-10.8%	2.1%	-4.8%	3.1
C[C@H](CO)N1C[C@H](C)[C@H](CN(C)C)Oc2ccc(NS(=O)(=O)c3ccc(F)cc3)cc2CC1=O	10.9%	.	1.7%	.
CC(C(=O)Nc1ccc(N2CCOCC2)cc1)N1C(=O)c2ccccc2C1=O (centres undefined)	-4.4%	-3.4%	0.5%	-3.6
CC1CC(C)CN(CC(O)COc2ccc3c(c2)CCC3)C1 (centres undefined)	-8.8%	-2.1%	-2.7%	-2.3
O=C(NNC(=O)c1ccccc1[N+](=O)[O-])c1ccco1	-2.6%	-4.0%	-1.3%	3.5
O=C(CN(C(=O)CNC(=O)c1cccs1)c1ccccc1F)NC1CCCCC1	-1.5%	-4.8%	4.4%	.
O=C(Cc1ccc(F)cc1)OCC(=O)c1cc2ccccc2o1	0.1%	-1.6%	-0.1%	-3.2
CC(=O)N1CCN(CC(=O)Nc2cc([N+](=O)[O-])ccc2Cl)CC1	-4.7%	-0.3%	-3.7%	-2.4
COCCCN(C(=O)CSCC(=O)Nc1cccc(C)c1)c1c(N)n(Cc2ccccc2)c(=O)[nH]c1=O	11.8%	.	-4.5%	.
CCOc1ccc(N(CC(=O)NC(C)(C)C)C(=O)c2ccco2)cc1	-1.4%	-5.6%	1.3%	12.2
O=C(NCCc1ccc(Cl)cc1)C1CCCN(S(=O)(=O)c2cnc[nH]2)C1 (centres undefined)	27.1%	0.3%	3.5%	0.8
CCCCn1cnc2cc(NCc3cccc(OC)c3O)ccc21	2.2%	-22.7%	3.8%	0.1

Record cards, from the list above. Values in the order: Rango release inh, miR-21 FLuc, Rango-impB inh, GLA inh pH 4.5
`CC(=O)N1CCN(CC(=O)Nc2cc([N+](=O)[O-])ccc2Cl)CC1` reads -4.7%, -0.3%, -3.7%, -2.4
`O=C(NCCc1ccc(Cl)cc1)C1CCCN(S(=O)(=O)c2cnc[nH]2)C1` (centres undefined) reads 27.1%, 0.3%, 3.5%, 0.8

Going on with the list:
SMILES	Rango release inh	miR-21 FLuc	Rango-impB inh	GLA inh pH 4.5
Cc1c(NC(=O)c2ccco2)c(=O)n(-c2ccccc2)n1C	12.3%	0.6%	0.3%	.
COc1ccccc1NC(=O)NCc1ccc(C)n1C	9.7%	-3.3%	-6.4%	.
N=C1C=CC=C2C1=NC1(CCCCC1)N2O	-2.1%	1.0%	?	1.3
O=C(N/N=C1\CC(c2ccccc2)Oc2ccccc21)c1cccnc1 (centres undefined)	-7.6%	-6.5%	1.0%	-4.1
Cc1ccc(Oc2ccc(NC(=O)C3=CC=CN4CCS(=O)(=O)N=C34)cc2)cc1	-9.1%	.	-2.7%	.
CN1CCN(c2oc(COc3ccc(-c4ccccc4)cc3)nc2C#N)CC1	12.0%	-0.6%	6.4%	-23.7
COc1ccc(Br)cc1C(=O)Nc1ccc(N2CCCC2)cc1	?	-8.5%	?	.
CCOC(=O)N1CCN(S(=O)(=O)c2ccc3c(c2)OCC(=O)N3)CC1	12.3%	3.0%	0.9%	-4.3
CN(C)C(=O)Nc1ccccc1	1.8%	0.2%	1.8%	1.5
COc1cc(CCC(=O)Nc2ccc(S(=O)(=O)N3CCOCC3)cc2)cc(OC)c1OC	2.6%	.	?	.
Cc1ccc(C(=O)O[C@H](C(=O)O)[C@H](OC(=O)c2ccc(C)cc2)C(=O)O)cc1	1.5%	2.6%	-1.1%	.
C=CCONC(=O)Cc1ccccc1	-6.7%	.	2.6%	.
COc1ccc(/C=N/NC(=O)c2ccc(NC(C)=O)cc2)cc1COc1ccc(F)cc1F	15.6%	-3.9%	0.5%	.
NC1=NC(c2cccc(O)c2)n2c(nc3ccccc32)N1 (centres undefined)	9.2%	1.1%	0.0%	6.4
COc1ccc(CNC(=O)C2CC(O)CN2C(=O)Nc2ccccc2)cc1 (centres undefined)	2.8%	-0.1%	2.8%	.
O=C(CSc1ccccc1C(=O)O)NCc1ccc(Cl)cc1	0.5%	-5.9%	1.2%	-3.2
O=C(NNc1c2ccccc2nc2ccccc12)c1ccc(O)cc1	-4.6%	-12.0%	0.8%	-9.3
CCOC(=O)C1=C(N)N(c2ccccc2)C(=O)C1	23.7%	0.7%	-0.3%	2.4
CCN1C=C(C(=O)OC)C(c2cccc(C)c2)C(C(=O)OC)=C1	?	-4.5%	?	?
CCOc1ccc(C(=O)NCCc2ccc3c(c2)OCCO3)cc1	11.1%	0.1%	-1.4%	0.3
CCOc1ccc(/C=C/C(=O)NCc2ccccc2)cc1	-4.4%	-25.7%	-1.4%	-17.0

Screening data (PubChem)
